Resorufin autofl: compounds fluorescent in resorufin spectral region | Compound fluorescence, resorufin region 547/598 nm, buffer; stronger effect = higher value | max dye-equivalent concentration, M | 59,000 compounds, 0.04% hits | AID 588; active = above 10 nM dye equivalent; inconclusive = 1 to 10 nM; inactive = 1 nM or less; a few of its hits are not listed in these tables; further: highest value over a series up to 38 µM
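Compounds in 100 mM Tris buffer, pH 8.0, incubated 15 min at room temperature, then read with 547 nm excitation and 598 nm emission filters. Fluorescence was converted to dye-equivalent concentration using an on-plate six-point resorufin standard curve.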
A647 autofl: A647 region autofluorescence; 59,000 tested, under 10 active; max dye-equivalent concentration, M; Compound fluorescence, A647 channel (570/671 nm), Tris buffer; AID 592; active means above 1 µM dye equivalent; inconclusive means 0.1 to 1 µM; inactive means 0.1 µM or less;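 further: values scaled relative to a standard on each plate; highest value over a series up to 38 µM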
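Fluorescence read (570 nm ex, 671 nm em) after 15 min RT incubation of compounds in 100 mM Tris buffer, pH 8.0; values expressed as dye-equivalent concentration against a six-point A647 standard series on each plate.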
AID923: qHTS Assay for Allosteric/Competitive Inhibitors of Caspase-1: Spectroscopic Profiling in AFC Spectral Region | compound fluorescence, AFC spectral region (405/520 nm); almost no hit is shown here | AID 923, 2007 | Potency, µM (highest dose often 57.5 µM), for inactives: top-dose fluorescence increase, most hits filed as activators | 75,000 compounds, 1.1% hits; active means well fitted activation curve with a large enough effect; inconclusive means small, poorly fitted or top-dose-only effect;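 further: potency means the concentration at half of the fitted maximal effect; 0% is about no effect; scaled to a free AFC standard on each plate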
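Baseline compound fluorescence (AFC region, 405 nm ex/520 nm em) taken from the intercept of kinetic reads with 50 nM caspase-1 and 5 uM Ac-WEHD-AFC; normalized to an on-plate AFC standard curve; compounds titrated up to 57 uM.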
A488 autofl: A488 region autofluorescence; compound autofluorescence, A488 spectral region, dye equivalency; stronger effect = higher value; AID 591; max dye equivalency, M; 59,000 compounds, 0.1% hits; active = above 10 nM dye equivalent; inconclusive = 1 to 10 nM; inactive = 1 nM or less; about half of its hits are not listed in these tables;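 further: highest value over a series up to 38 µM; compound alone in buffer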
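Readout is A488 dye-equivalent concentration, calibrated by a per-plate six-point Alexa 488 series. Compounds in 100 mM Tris buffer pH 8.0 were incubated 15 min at room temperature. Plates were imaged using 480 nm excitation/540 nm emission filters.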
TSHR agonist: activates the human thyroid stimulating hormone receptor; 73,000 compounds, 0.48% hits; HEK293-CNG-TSHR cells (CNG channel as cAMP sensor), membrane potential dye, cAMP; Potency, µM (titrated, usually from 57.1 µM), without a hit: at the highest dose activation, actives largely listed as activators; AID 926; P16473; active = well fitted activation curve of enough size with the parental cells flat; inconclusive = any curve in the parental cells; inactive = parental cells flat and receptor cells flat or falling; further: potency means the concentration at half of the fitted maximal effect; % of control where 0% means no effect; weak receptor curves with flat parental cells got no call and are not listed
Target sequence (P16473 whole entry, looked up): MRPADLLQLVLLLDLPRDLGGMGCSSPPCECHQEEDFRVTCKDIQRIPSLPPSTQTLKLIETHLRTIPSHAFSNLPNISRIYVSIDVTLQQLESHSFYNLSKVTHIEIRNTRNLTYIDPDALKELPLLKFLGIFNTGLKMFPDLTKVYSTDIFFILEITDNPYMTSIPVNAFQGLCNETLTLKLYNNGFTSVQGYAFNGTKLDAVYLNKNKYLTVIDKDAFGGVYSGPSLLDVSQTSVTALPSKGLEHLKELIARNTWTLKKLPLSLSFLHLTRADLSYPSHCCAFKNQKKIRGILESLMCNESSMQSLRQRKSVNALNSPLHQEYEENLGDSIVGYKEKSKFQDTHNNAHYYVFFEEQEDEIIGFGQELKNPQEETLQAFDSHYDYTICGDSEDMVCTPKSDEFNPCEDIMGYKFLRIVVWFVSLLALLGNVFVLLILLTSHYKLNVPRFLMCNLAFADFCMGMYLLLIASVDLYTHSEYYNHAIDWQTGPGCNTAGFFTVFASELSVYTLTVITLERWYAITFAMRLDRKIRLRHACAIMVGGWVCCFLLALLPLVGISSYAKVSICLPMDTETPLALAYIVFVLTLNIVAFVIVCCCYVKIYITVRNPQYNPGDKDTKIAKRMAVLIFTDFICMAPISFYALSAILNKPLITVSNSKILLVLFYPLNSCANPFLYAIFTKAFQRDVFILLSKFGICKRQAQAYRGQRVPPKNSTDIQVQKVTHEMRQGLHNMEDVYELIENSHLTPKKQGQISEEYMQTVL
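HEK 293 cells stably expressing TSHR and a modified CNG channel, with CNG-only parental cells as counterscreen, were preloaded 60 min at room temperature with membrane potential dye containing 100 uM RO 20-1724. Compound exposure was 30 min, and depolarization was read as fluorescence at 590 nm.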
* marks the source's active call; other numbers are inactive results; i = inactive; ? = inconclusive; · = not tested or not shown; & = joins results of further samples; [ ] = remark or other dose. Some of the compounds tested; count on the stated rates, not on these rows.

Sample of the layout, two compounds:
nr	SMILES	Resorufin autofl	A647 autofl	AID923	A488 autofl	TSHR agonist
1	CN(CC(=O)NCCN1CCN(Cc2ccccc2)CC1)S(=O)(=O)c1cccc2nsnc12	i	5.6e-09	-0.3%	i	3.7%
2	O=C(CSc1nnc(-c2ccc(Cl)cc2)n1Cc1ccco1)Nc1ccc2c(c1)OCCO2	i	5.75e-08	2.3%	i	?

The whole of this part, from the first entry:
nr	SMILES	Resorufin autofl	A647 autofl	AID923	A488 autofl	TSHR agonist
1	CN(CC(=O)NCCN1CCN(Cc2ccccc2)CC1)S(=O)(=O)c1cccc2nsnc12	i	5.6e-09	-0.3%	i	3.7%
2	O=C(CSc1nnc(-c2ccc(Cl)cc2)n1Cc1ccco1)Nc1ccc2c(c1)OCCO2	i	5.75e-08	2.3%	i	?
3	COc1ccc(-c2nnn(CC(=O)N(Cc3cccs3)C(C)C(=O)NC3CCCC3)n2)cc1OC (stereo not drawn)	i	4.4e-09	1.7%	i	16.5%
4	CCOc1ccc(C2C(C#N)=C(N)Oc3cc(C)n(CCN(C)C)c(=O)c32)cc1OCC (stereo not drawn)	i	1e-09	-0.6%	i	?
5	CC(C)OC(=O)C(C#N)c1nc2ccccc2nc1N1CCCC1 (stereo not drawn)	i	4.8e-09	·	i	·
6	CC1CCN(S(=O)(=O)c2cc(Br)cc(C(=O)NC3=NCCS3)c2)CC1	i	1e-09	3.0%	i	·
7	Cc1cccc(Cn2c(=O)c3c(nc4n3CCCN4Cc3ccccc3)n(C)c2=O)c1	i	6.1e-09	-2.6%	i	-24.1%
8	CCOC(=O)N1CCN(C(=O)c2csc3c2CCCCC3)CC1	i	2.1e-08	0.9%	i	-2.2%[11.4 µM]
9	CC(=O)NCCc1csc(-c2ccccc2)n1	i	5.8e-09	0.8%	i	5.2%[11.4 µM]
10	CCOc1nc(C#N)nc(N2CCCCC2)n1	i	1.22e-08	1.3%	i	?
11	O=C(NCCCNC1CCCCC1)c1ccc(/C=N/O)nc1	i	5.03e-08	0.1%	i	-3.0%
12	COCCNC(=O)Cn1ncc2ccsc2c1=O	·	·	-0.6%	·	3.2%
13	Cc1ccccc1C(=O)Nc1c(C(=O)N2CCCC2)cnn1-c1ccccc1	i	1.31e-08	0.6%	i	1.8%
14	Cn1c(SCC(=O)OC2CCCCC2)nnc1-c1ccc(S(=O)(=O)N2CCCC2)cc1	i	2.01e-08	-0.8%	i	2.9%
15	Cc1cc(CNC(=O)Nc2ccc3c(c2)OCO3)nn1C	i	3.64e-08	-2.2%	i	9.6%
16	CC1CCN(CCCNC(=O)CN2CCN(Cc3ccc(Cl)cc3)C2=O)CC1	·	·	0.5%	·	2.7%
17	CCN(Cc1cc2ccccc2[nH]c1=O)S(=O)(=O)c1ccccc1	i	7.9e-09	-0.7%	i	20.5%
18	O=C(Nc1ccccc1)c1cccnc1N1CCOCC1	i	1.7e-09	-0.1%	i	2.1%[11.4 µM]
19	c1nc(NCCN2CCOCC2)c2cc(-c3ccc4c(c3)OCO4)ccc2n1	i	1.52e-08	-1.0%	i	2.8%
20	CCC(c1nnnn1CCc1ccccc1)N(Cc1ccco1)Cc1cc2c(C)ccc(C)c2[nH]c1=O (stereo not drawn)	i	2.88e-08	7.4%	i	?
21	Cc1ccc(C(c2nnnn2Cc2cccs2)N2CCN(Cc3ccc4c(c3)OCO4)CC2)cc1 (stereo not drawn)	i	1.42e-08	0.4%	i	-19.5%
22	CCCc1nnc(SCC(=O)N2CCOCC2)n1CCCOC	i	1e-09	0.1%	i	-3.3%
23	COc1cccc2[nH]c3c(N4CCC(C(N)=O)CC4)ncnc3c12	i	4.61e-08	-1.3%	i	6.3%[11.4 µM]
24	COC(=O)CSc1nc2c(c(-c3ccc(C)o3)c1C#N)CCCC2	i	1e-09	0.8%	i	-11.7%
25	Oc1ccc(N2CCN(C(c3ccncc3)c3nnnn3C3CCCC3)CC2)cc1 (stereo not drawn)	i	1e-09	0.9%	i	1.7%[11.4 µM]
26	COc1cc2c(cc1OC)C(C(=O)N1CCOCC1)C(c1cccs1)N(C)C2=O (stereo not drawn)	i	2.92e-08	0.5%	i	4.2%
27	Oc1c(C(c2cccc(F)c2)N2CCN(Cc3ccccc3)CC2)sc2ncnn12 (stereo not drawn)	·	·	-0.1%	·	-1.0%
28	C[C@@H](C(=O)Nc1ccc2ccccc2c1)[C@@H]1C[C@@]1(C)[C@@H](NC(=O)Oc1ccc(F)cc1)c1ccccc1	·	·	3.3%	·	-2.6%
29	Cn1c(Cn2nnc3ccccc32)nnc1SCC(=O)c1ccc(F)cc1	i	2.43e-08	0.9%	i	4.4%
30	Cc1ccccc1-c1noc(N)c1C#N	i	3.25e-08	-1.8%	i	13.6%
31	CCCn1c(C)nc2c(NCCCCN3CCCC3)nc(C)nc21	·	·	-0.5%	·	8.6%
32	N#Cc1nc(COc2ccc(Br)cc2)oc1NCCN1CCOCC1	i	3.43e-08	·	i	·
33	NC(=O)c1c(NC(=O)CN2C(=O)CCC2=O)sc2c1CCCCC2	·	·	-2.0%	·	?
34	Cc1nn2c(-c3cccc(NC(=O)CN4CCOCC4)c3)nnc2c2ccccc12	i	6.1e-09	0.7%	i	9.0%
35	N#CCSc1nnc(C2CCCCC2)n1-c1ccccc1	i	2.86e-08	0.8%	i	-0.1%
36	CSc1nc2nc(C)cc(-c3ccccc3)n2n1	i	1e-09	-0.1%	i	9.3%
37	O=C1c2ccccc2-c2ccc(N(Cc3ccc(Br)cc3)Cc3ccc(Br)cc3)cc21	i	1e-09	0.0%[11.5 µM]	i	3.9%[11.4 µM]
38	Cc1ccc(NC(=O)NC(=O)CN2C(=O)NC3(CCCCCCC3)C2=O)c(C)c1	i	4.6e-09	-2.8%	i	14.3%
39	CCn1c(CNc2ccc(Cl)cc2)nnc1SCC(=O)NCc1ccccc1	i	3.8e-08	-1.3%	i	-4.0%[11.4 µM]
40	OC1C=CSc2nc3ccccc3n21 (stereo not drawn)	i	2e-09	0.2%	i	5.9%
41	CC1(C(=O)N(CC(=O)NC2CCCC2)C2CCCC2)CC(=O)N=C2C=CC=CN21 (stereo not drawn)	i	1e-09	-0.6%	i	-2.0%
42	CCN1/C(=C\C(C)=O)Sc2ccc(OC)cc21	i	2.4e-09	·	i	-6.3%
43	O=C(O)CN1C(=O)c2cccc(Oc3ccc(Cl)cc3)c2C1=O	i	4.36e-08	1.0%	i	-2.8%
44	CC(=C(CCOP(=O)(O)O)SC(=O)c1ccccc1)N(C=O)Cc1cnc(C)nc1N	i	3.6e-09	-2.1%	i	-4.8%[25.6 µM]
45	O=C(OCCN1CCOCC1)C(c1ccccc1)c1ccccc1	i	1e-09	-0.3%	i	5.7%
46	CCN(CCCNC(=O)c1ccc(N2CCCC2=O)cc1)c1cccc(C)c1	i	1e-09	1.3%	i	?
47	CCCCn1c2c(c(=O)n(C)c1=O)C(c1ccc(OC)cc1)N1CCCCCC1=N2 (stereo not drawn)	i	1e-09	-0.2%	i	19.3%
48	Cc1cc(N2CCOCC2)cc(C)[n+]1[O-]	i	6.83e-08	1.1%	i	-1.9%
49	CCCOc1ccc(C2C(C(=O)c3ccc(C)o3)=C(O)C(=O)N2CCN2CCOCC2)cc1OC (stereo not drawn)	i	6.2e-09	1.8%	i	8.6%
50	O=C(CN1C(=O)c2ccccc2S1(=O)=O)NCCSc1ccccc1	i	1e-09	-1.3%	i	-2.4%
51	Cc1nn(-c2nnc(C)c(=O)[nH]2)c(C)c1SCC(=O)Nc1ccc(C(C)C)cc1	i	3.54e-08	1.4%	i	3.4%
52	COc1ccc(-n2c(Cc3cccn3C)nnc2SCC(=O)Nc2ccc(C(C)=O)cc2)cc1	·	·	-1.9%	·	-14.0%
53	Cc1ccc(O)c(N=Nc2ccccc2)n1	i	2.2e-09	-4.4%	i	-19.5%&-7.7%
54	CC12CCC(C(=O)n3c1nc1ccccc13)C2(C)C (stereo not drawn)	i	1.06e-08	-2.1%	i	-0.4%
55	COc1ccc(CNc2nc3nc(C)c(Cl)c(C)n3n2)cc1OC	i	7.2e-09	2.8%	i	·
56	CCC(C)NC(=O)C1=C(C)C(=O)OC12CCC(C)CC2 (stereo not drawn)	·	·	0.6%	·	2.4%

Remaining list, next part.
nr	SMILES	Resorufin autofl	A647 autofl	AID923	A488 autofl	TSHR agonist
57	COc1ccc(C(=O)N2CCN(c3ccc(C)c(C)c3)CC2)cc1OC	·	·	0.8%	·	44.9%
58	Cc1ccc(-n2ncc3c(NCCCn4ccnc4)ncnc32)c(C)c1	·	·	-0.9%	·	?
59	O=C(CN1CCN(C(=O)c2c(F)cccc2F)CC1)Nc1ccccc1F	i	1.7e-09	0.7%	i	2.3%
60	Cc1ccc2c(c1)N(CCC(=O)NCC1CCCO1)C(=O)CO2 (stereo not drawn)	i	1.7e-09	0.6%	i	-2.2%
61	COc1ccc(N2CCN(c3nc4c(c(=O)[nH]c(=O)n4C)n3Cc3cccc(C)c3)CC2)cc1	i	6.4e-09	0.0%	i	9.1%
62	COc1ccc(CCNC(=O)CCS(=O)(=O)c2cccc3nsnc23)cc1OC	i	8.3e-09	0.2%	i	6.9%
63	CCOC(=O)c1c(NC(=O)c2noc3c2CCCC3)sc2c1CCCC2	i	1e-09	-0.4%	i	-4.5%
64	O=C(NCc1ccccc1)c1ccc(/C=N/O)nc1	·	·	-2.8%	·	-0.5%
65	COc1cccc(NC(C)C(=O)N2CC(C)OC(C)C2)c1 (stereo not drawn)	i	2e-09	2.3%	i	-1.9%
66	Cc1cccc(C)c1NC(=O)N1CCC(N2CCCCC2)CC1	i	3.83e-08	-0.5%	i	10.6%[11.4 µM]
67	O=c1c2[nH]c3ccccc3c2ncn1C1CCCCC1	i	5e-09	0.7%	i	?
68	CCOc1ccc(OCC)c(NC(=O)CSc2nc3c(c(=O)n(C)c(=O)n3C)n2CC)c1	i	8.8e-09	-2.8%	i	3.6%
69	Cc1ccc(OC(=O)CCC(=O)OCCCC(F)(F)C(F)(F)F)cc1	·	·	0.4%	·	-5.1%
70	O=C1[C@@H]2[C@H](C(=O)N1O)[C@H]1C=C[C@@H]2C1	i	4.52e-08	·	i	·
71	Cc1ccc(NC(=O)CC(=O)NCCN2CCOCC2)cc1	·	·	9.3%	·	?
72	COCCNC(=O)CCn1nc(-c2ccc(Cl)cc2)ccc1=O	i	8.3e-09	0.8%	i	3.4%
73	O=C(c1ccc(S(=O)(=O)N2CCOCC2)cc1)N(Cc1ccco1)Cc1cccs1	i	3.78e-08	-0.5%	i	-3.4%
74	CC(C)Nc1nc(-c2ccccc2)nc(-n2ccnc2)n1	i	2.32e-08	-0.1%	i	?
75	c1ccc(Cc2nn3c(-c4ccncc4)nnc3s2)cc1	i	1e-09	2.8%	i	4.2%
76	CC(=O)N1CCc2cc(Br)cc(S(=O)(=O)NCCCN3CCCC(C)C3)c21 (stereo not drawn)	i	1.18e-08	2.7%	i	·
77	CCC(=O)OC1(C#CCOc2ccc(OC)cc2)CCN(C)CC1	i	3.37e-08	-1.1%	i	5.3%
78	CN(C1CCCCC1)S(=O)(=O)c1ccc(S(=O)(=O)N2CCN(CCC#N)CC2)cc1	·	·	0.1%	·	-12.9%
79	O=S(=O)(Cc1ccccc1)N1CCc2ccccc21	1.59e-08M*	7.6e-09	-0.4%	?	?
80	CC1(C)CC(=O)c2c(-c3cccs3)n[nH]c2C1	i	1.6e-08	-1.5%	i	2.7%
81	CN(C)c1cccc(N=C2C=C(N3CCOCC3)CC(C)(C)C2)c1	i	2.27e-08	3.5%	i	3.1%
82	CCN(CC)c1ccc(-c2nn3c(-c4cccnc4)nnc3s2)cc1	i	1.1e-09	·	i	·
83	COc1cccc(-c2ccc3ncnc(NCc4cccnc4)c3c2)c1	i	1e-09	0.8%	i	12.7%

Source: PubChem (National Center for Advancing Translational Sciences (NCATS))
